MgrA DNA FP = S. aureus MgrA-DNA binding modulation | hit rate 0.13% among 84,000 | inhibition, %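 (about 10 µg/mL by stock and volumes)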 | fluorescence polarization;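 active means above 50% in either of two replicates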;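 further: 0% = protein plus DNA without compound and 100% = DNA alone without protein; higher means less MgrA bound to DNA so lower polarization; one replicate is shown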
S aureus helic = S. aureus DNA helicase inhibition. purified S. aureus helicase, fluorescence unwinding assay; about half of the hits fall short of the stated cut. hit rate 0.05% among 120,000. inhibition, %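 (tested at about 80 µM)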. AID 485395;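 active means both duplicates at 50% or more, or one of them with a favoured structure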;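 further: 0% = mean of negative control wells and 100% = mean of positive control wells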
* marks the source's active call; other numbers are inactive results; . = no result given; & = joins results of further samples. An excerpt. The share of hits here may be higher or lower than overall.

SMILES	MgrA DNA FP	S aureus helic
N#C/C(C(=O)c1ccccc1)=C1/CCCCCN1	0.1	5
COC(=S)Nc1cccc(Cl)c1	.	-11
CCc1ccc(Nc2nc(N)nc(C(F)(F)F)n2)cc1	-4.2	-3
O=C(O)c1ccccc1NS(=O)(=O)c1cccc(-n2sc3ccccc3c2=O)c1	.	39
O=C1CCCc2c1[nH]c1ccc(-c3ccccc3)cc21	.	-10
CCOC(=O)c1ccc(CC2SC(N)=NC2=O)cc1 (stereo unspecified)	.	-13
Cc1nonc1CSCC(=O)O	1.6	-6
Cc1ccc(S(=O)(=O)Oc2cc(=O)n(C)c3ccccc23)cc1	-0.2	.
Cc1ccc(-c2cc(-c3ccccc3)no2)c(O)c1	1.7	8
CCN(C(=O)Cc1c(C(=O)O)n(CC)c2ccccc12)c1cccc(Cl)c1	.	-11
Cc1cc2cc(CNC(=O)c3cc4ccccc4o3)ccc2n1C	.	1
O=C(O)c1nccnc1C(=O)Nc1ccccc1	3.0	.
NC(=O)c1cc[n+](CC2=C(C(=O)O)N3C(=O)[C@@H](NC(=O)[C@@H](c4ccccc4)S(=O)(=O)[O-])[C@H]3SC2)cc1	19	.
Fc1ccc(-c2cn3cccnc3n2)cc1	-1.5	.
O=C(Nc1ccc(Cl)cc1)c1ccc(CSC2=NCCS2)cc1	3.2	1
CC(=O)N1C2C=CC(C2)C1(C(F)(F)F)C(F)(F)F (stereo unspecified)	-1.9	7
CC(C(=O)N1CCc2ccccc21)N1CCc2ccccc2C1 (stereo unspecified)	.	-8
Cc1cc(NC(=O)COC(=O)C23CC4CC(CC(C4)C2)C3)no1	.	-5
Nc1cccnc1NCc1ccccc1	11	-3
CC(=O)Nc1cccc(C(=O)OCC(=O)N2CCN(c3ccccc3)CC2)c1	.	-6
CCC(=O)Nc1cccc(OCc2cc(=O)n3nc(CC)sc3n2)c1	.	16
CCOC(=O)C1CCN(C(C)C(=O)NC23CC4CC(CC(C4)C2)C3)CC1 (stereo unspecified)	.	12
Cc1ccc2c(c1)C1c3sc(=O)[nH]c3SCC1(CC(=O)O)C(=O)O2 (stereo unspecified)	.	-16
Cc1cc(/C=N/NC=O)c(C)n1-c1ccc(I)cc1	.	17
Cc1cc(C)cc(NC(=S)Nc2cc(C)cc(C)c2)c1	-1.7	.
O=c1cc(CSc2nc3ncccc3[nH]2)nc2ccccn12	.	14
Cc1nn(-c2ccccc2)c(CC(C)(C)C(=O)O)c1C(=O)O	-2.4	8
Cc1noc(C)c1C(=O)N=C(N)C12CC3CC(CC(C3)C1)C2	4.2	.
Cc1ccccc1/C=C/c1c[nH]c2ccccc12	-0.3	.
CNn1cnc2ccsc2c1=O	2.5	.

By substructure, those above with an NH in an aromatic ring.
SMILES	MgrA DNA FP	S aureus helic
O=C1CCCc2c1[nH]c1ccc(-c3ccccc3)cc21	.	-10
Cc1ccc2c(c1)C1c3sc(=O)[nH]c3SCC1(CC(=O)O)C(=O)O2 (stereo unspecified)	.	-16
O=c1cc(CSc2nc3ncccc3[nH]2)nc2ccccn12	.	14
Cc1ccccc1/C=C/c1c[nH]c2ccccc12	-0.3	.

The listing picks up, starting 6 compounds before the break.
SMILES	MgrA DNA FP	S aureus helic
Cc1cc(C)cc(NC(=S)Nc2cc(C)cc(C)c2)c1	-1.7	.
O=c1cc(CSc2nc3ncccc3[nH]2)nc2ccccn12	.	14
Cc1nn(-c2ccccc2)c(CC(C)(C)C(=O)O)c1C(=O)O	-2.4	8
Cc1noc(C)c1C(=O)N=C(N)C12CC3CC(CC(C3)C1)C2	4.2	.
Cc1ccccc1/C=C/c1c[nH]c2ccccc12	-0.3	.
CNn1cnc2ccsc2c1=O	2.5	.
Cc1cc(C)n(-c2cc(=O)[nH]c(=O)[nH]2)n1	2.6	4
CCC1=NC(C(F)(F)F)(C(F)(F)F)C2=C(CC(C)(C)CC2=O)N1Cc1ccccc1	-0.9	-7
CCOc1cc(C2Nc3ccccc3NC3=C2C(=O)CC(c2ccc(OC)cc2)C3)cc(Cl)c1O (stereo unspecified)	1.2	.
CC(C)NC(=O)c1ccc2ccccc2n1	-0.8	-7
Cc1cc(N=NC(=O)c2ccccc2)ccc1O	.	22
CCC(NC(=O)Nc1cc(C)ccc1OC)c1c(-n2cccc2)sc2c1CCN(C)C2 (stereo unspecified)	.	23
CCCc1c(C)nc2c(C)cccc2c1SCCC(=O)O	0.0	9
O=C(O)CCCNc1n[nH]c(=O)[nH]c1=O	2.2	6
CCOC(=O)C1CCN(CC(O)COc2cccc(C)c2)CC1 (stereo unspecified)	.	33
COc1ccc(-n2c(CC#N)nnc2SCc2c(C)c(C)c(C)c(C)c2C)cc1	-2.0	.
O=C(COC(=O)c1ccco1)NC12CC3CC(CC(C3)C1)C2	-2.8	-5
Cc1cc(C(=O)Nc2nc3c(s2)Cc2ccccc2-3)no1	0.5	.
Cc1ccccc1N=Cc1c(O)[nH]c2ccccc12	-0.3	0
O=C(COc1ccccc1)NCc1nc2ccccc2[nH]1	3.5	-15
CCN(Cc1ccccc1)C(=O)CSc1nc2nc(C)cc(C)n2n1	.	4

Next section, overlapping the part above by three compounds.
SMILES	MgrA DNA FP	S aureus helic
Cc1ccccc1N=Cc1c(O)[nH]c2ccccc12	-0.3	0
O=C(COc1ccccc1)NCc1nc2ccccc2[nH]1	3.5	-15
CCN(Cc1ccccc1)C(=O)CSc1nc2nc(C)cc(C)n2n1	.	4
COc1ccc(C(O)C(Nc2ccccc2)c2nc3ccccc3n2C)cc1 (stereo unspecified)	0.9	6
Cc1c(Cl)cccc1NC(=O)CC(NCCN1CCOCC1)C(=O)O (stereo unspecified)	.	-3
CN1CCN(C(=O)CN2C(=O)/C(=C/c3ccccc3)Sc3ccccc32)CC1	.	-7
CC(C)S(=O)(=O)c1csc(C(=O)N/N=C/C(C)(C)C)c1-n1cccc1	.	-1
CCN(CC)c1nc(N)c2c(N)n(-c3ccccc3C)c(=S)c(C#N)c2c1C#N	.	-21
CC(Nc1nc(Nc2ccc(F)cc2)nc(SCC(=O)Nc2ccc(F)cc2)n1)c1ccccc1 (stereo unspecified)	0.6	5
Cc1cccc(NC(=O)C(C)C(=O)c2ccccc2)c1 (stereo unspecified)	4.2	24
Cc1cc(C)n(-c2nc3ccccc3nc2Nc2ccc(CC(=O)O)cc2)n1	.	8
COCCNC(=S)c1ccc(N(C)C)cc1	25	22
Cc1cc(N2CCC(C(=O)Nc3cccnc3Cl)CC2)n2nc(C)c(-c3ccc(Cl)cc3)c2n1	-0.2	14
c1ccc(CCc2ccccn2)nc1	2.2	13
CC(C)(C)N1C(=O)NC(=O)/C(=C\c2cn(Cc3ccccc3)c3ccccc23)C1=O	5.1	1
O=C(/C=C/c1ccccc1)N(c1ccccn1)C1CCCCC1	0.5	-16
N#Cc1cnc(Sc2nnc(-c3ccco3)n2-c2ccccc2)nc1N	.	15
O=C(NC(=S)N1CCCCC1)c1ccccc1	3.1	.
CCOc1cc(C(=O)NC(=S)Nc2cccc(-c3ccc(CO)o3)c2)cc(OCC)c1OCC	8.8	2
CCCNC(=O)N1c2ccc(F)cc2CCC1C (stereo unspecified)	-0.3	10
Clc1ccc(-c2nnc(-c3ccc(Cl)cc3)o2)cc1	-0.2	.
CCC(=O)Nc1ccccc1N1CCCC1	-1.6	-4
Cc1ccc(N2N=NC3CCC(C4=CCCC4)C32N2CCOCC2)cc1C (stereo unspecified)	.	14
CCOC(=O)c1c(C)nn(-c2ncccc2C(F)(F)F)c1C	-2.0	.
Cc1cc(N(C(=O)c2cc3c(s2)CCC3)C(=O)c2cc3c(s2)CCC3)no1	.	-13
Cc1ccc(/C=C2\CC(C)CC3=C2NC(=S)NC3c2ccc(C)cc2)cc1 (stereo unspecified)	-2.9	7
Cc1noc(C)c1COc1ccc(C(=O)OCC(=O)N2CC(=O)Nc3ccccc32)cc1	.	-11
N=c1oc2ccccc2cc1C(=O)Nc1ccc(Cl)cc1Cl	.	-18&14
CCOC(=O)c1[nH]c(COC(=O)C2CC(=O)N(Cc3ccccc3)C2)c(C(=O)OCC)c1C (stereo unspecified)	.	-11
CC(=O)N/C(=C\c1ccccc1)C(=O)O	2.2	-16
CC(C)N1C(=O)/C(=C/c2cccc(Cl)c2Cl)SC1=S	.	0
CCCNC(=O)C12CC3CC(CC(C3)C1)C2	1.4	4
CCOC(=O)c1c(-c2ccc(C)cc2)csc1/N=C/c1nc(-c2ccco2)oc1O	1.5	.
CCN(CC)CCOCCOC(=O)C1(c2ccccc2)CCCC1	-3.3&1.0	.
COc1ccc(COC(=O)C2=C(C)NC3=C(C(=O)CCC3)C2c2cc3c(cc2[N+](=O)[O-])OCO3)cc1 (stereo unspecified)	3.2	.
Cc1ccc(S(=O)(=O)Nc2cc(S(=O)(=O)O)c(N)c3c2C(=O)c2ccccc2C3=O)cc1	0.2	.
Cc1cc2c(cc1S(=O)(=O)N1CCN(c3ccccc3)CC1)OCCN2C	.	-23
O=C(Cn1c(=O)c(F)cn(C2CCCO2)c1=O)Nc1cccc(I)c1 (stereo unspecified)	.	12
Cc1nnsc1C(=O)O/N=C1\CCSc2ccc(F)cc21	2.5	.
COc1ccc(-c2csc3ncnc(NCCO)c23)cc1	-3.6	5
O=C(CC1CCCCC1)NCc1cn2ccsc2n1	0.9	6
COc1cc2c(cc1OC)C(C)N(S(C)(=O)=O)CC2 (stereo unspecified)	0.7	.
COc1ccc(-n2nnc3c(=O)n(CC(=O)NCC4CCCO4)cnc32)cc1 (stereo unspecified)	.	2
CSCCC1C2=C(CC(C)(C)CC2=O)Nc2c1c(C)nn2-c1nc2ccccc2s1 (stereo unspecified)	.	1
NC(=O)CCCc1nc(-c2ccccc2)no1	-2.5	-2
Cn1c(CC(N)=S)nc2ccccc21	.	2
CC1=C(c2sc(-c3ccccc3)nc2-c2cccs2)C(=O)OC1	.	-46
c1ccc(-c2cc3n(c2)CCc2ccccc2-3)cc1	1.6	2
Cc1ccc(CNC(=O)c2ccc(CN(Cc3ccccc3)C(=O)Nc3ccccc3)o2)o1	.	0
O=c1c2ccccc2[nH]c(=S)n1C1CC1	2.5	1
COCCn1c(O)c(/C(C)=N/c2sc3c(c2C#N)CCC3)c(=O)[nH]c1=S	.	-122
COc1cccc(Nc2nnc(SCC(=O)c3cc(C)n(C)c3C)s2)c1	.	-8
CCC(C(=O)NNC(=O)c1ccccc1N)c1ccccc1 (stereo unspecified)	14	.
CCSC1=NCCN1C(=O)c1ccc2c(c1)OCO2	.	5
CNC(=S)N/N=C(/N)c1ccccn1	5.3	.
c1ccc(-c2nnc(OCc3cccnc3)c3ccccc23)cc1	.	3
Cn1c(=O)c2nc(SCC(N)=O)n(C)c2n(C)c1=O	.	13
Cc1ccccc1OCCC(=O)O	.	-12
COC(=O)Nc1ccc2c(c1)CCCN2S(=O)(=O)c1ccc(C)cc1	.	-2
COc1ccc(NCC(O)CSc2ccc(OC)cc2)cc1 (stereo unspecified)	-3.1	.
NNC(=O)c1cc2ncc(C(F)(F)F)cc2s1	.	29
CSC(=C(C#N)C#N)N1CCOCC1	.	-3
O=C(CN1C(=O)c2ccccc2S1(=O)=O)N1CCN(c2cccc(Cl)c2)CC1	0.4	5
More records.
SMILES	MgrA DNA FP	S aureus helic
O=C(NCc1ccccc1)c1ccc2c(c1)N(Cc1ccccc1)C(=O)c1ccccc1S2=O (stereo unspecified)	.	20
O=C(NCCSc1c(-c2ccccc2)[nH]c2ccccc12)c1ccc(N2C(=O)CCC2=O)cc1	0.6	6
CC1c2nc3ccccc3n2C(CC(=O)NC2CC2)C(=O)N1Cc1ccccc1 (stereo unspecified)	.	22
CC(=O)NCc1ccc(C(=O)CSc2nnc(C)n2Cc2ccccc2)o1	.	-11
COc1ccc(N2CCN(Cc3nc4nc(C)cc(C)n4c3Br)CC2)cc1	.	15
COC(=O)CCc1c(C)c(C(=O)c2ccco2)c2ccccn12	.	10
Oc1ccc(C=NCC2CCCN3CCCCC23)c(O)c1 (stereo unspecified)	3.9	8
CCc1nn(CC(=O)NCCN2CCN(c3cccc(C)c3C)CC2)c(=O)c2cc3sccc3n12	.	17
CC(NC(=O)C1COc2ccccc2O1)c1ccccc1F (stereo unspecified)	.	17
O=C1CCC(C(=O)O)NC(=O)N1 (stereo unspecified)	-9.1	1
O=C(c1cnn(S(=O)(=O)c2ccccc2)c1)c1cc(Cl)ccc1O	.	-9
Cc1cc(C)nc(SCC(N)=O)n1	2.1	-3
Nc1nc(-c2cccs2)cc(C(F)(F)F)n1	0.2	.
Cc1ccc2cccc(OC(=O)c3ccc(C)c(C)c3)c2n1	.	1
CC1CC(C)CN(CCC(=O)Nc2ccccc2)C1 (stereo unspecified)	-5.4	2

Single records (already shown). Screens in order: MgrA DNA FP	S aureus helic
O=C1CCC(C(=O)O)NC(=O)N1 (stereo unspecified) is listed with -9.1	1
O=C(c1cnn(S(=O)(=O)c2ccccc2)c1)c1cc(Cl)ccc1O is listed with .	-9

Further compounds:
SMILES	MgrA DNA FP	S aureus helic
CC(C)NC(=O)c1ccc(COCC(F)(F)C(F)F)o1	.	17
Cc1nccn1-c1ccc(C(F)(F)F)cn1	-2.9	3
CC(C)=CCCC(C)N1CC23C=CC(O2)C(C(=O)O)C3C1=O (stereo unspecified)	.	4
FC(F)(F)c1cnc(SCc2ncc(-c3ccccc3)o2)c(Cl)c1	.	-13
Fc1ccccc1C1N(Cc2ccccc2)CCCN1Cc1ccccc1	-0.7	15
CCOc1ccc(Oc2cc(C)nc(SC)n2)nn1	-1.8	5
CCOC(=O)/C=C1\SCC(=O)N1CC(=O)Nc1cc(C(F)(F)F)ccc1N1CCOCC1	.	7

Assay outcomes deposited in PubChem by ICCB-Longwood Screening Facility, Harvard Medical School.
